From PubChem
T cruzi repl – T. cruzi replication inhibition; T. cruzi beta-gal in NIH3T3, luminescence, 90 h; inhibition, % (no concentration beside the values); actives 1.4% (n = 300,000); AID 1885;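 active = mean inhibition across valid replicates above about 55%, limit read from the data; inconclusive = mean below that limit but half or more replicates reach it; inactive = mean below it, under half of replicates reach it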;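 note: signal also drops with host cell toxicity which is not excluded here; 0% = plate median of DMSO wells and 100% = zero luminescence signal; higher percent means less beta-gal luminescence so fewer parasites; stock transfer was 50 nL into about 50 µL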
Beta apoptosis – beta cell apoptosis inhibition; INS-1E cytokine-induced death, ATP luminescence, 48 h; percent of positive-control rescue, neutral wells zero; protection from apoptosis, % (concentration not given with the values); actives 0.8% (n = 300,000);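 active = all replicates at 75% or more, or half of them and the mean; inconclusive = half reach 75% but not the mean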;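 note: 0% = cytokine-treated negative control wells and 100% = positive control rescue; higher means more ATP so stronger rescue from cytokine killing; wells of about 40 µL received 100 nL stock; the first replicate is given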
Vif A3G – inhibitors of Vif binding to APOBEC3G peptide, primary screen, biochemical, TR-FRET, GST-Vif 1-94, biotin-A3G peptide, dose response retest (AID 1117319); TR-FRET GST-Vif / biotin-A3G peptide binding; higher % means a stronger effect; test concentration not given here; strong numbers were not always called active; actives 0.57% (n = 260,000); inhibition, %, or IC50 in µM where a hit was titrated;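 active = above the screen mean plus three standard deviations and confirmed in dose response; inconclusive = results disagree or hit not tested in dose response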;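 note: Vif residues 1-94 fused to GST binding biotinylated APOBEC3G peptide 110-148; 0% = full assay without inhibitor and 100% = GST in place of GST-Vif; retest series ran down from 100 µM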
A1 inh – inhibitors of the anti-apoptotic protein A1, read as caspase activation. actives 0.066% (n = 330,000). AID 2462. caspase activation, % (no concentration beside the values). MEF A1-2A-BIM cells, Caspase-Glo 3/7 luminescence, 3 h; percent of clofoctol response, vehicle zero;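 active = over half of replicate activation scores above 10%, or exactly half above 10 with the replicate mean above 10; inconclusive = replicate mean below 10 yet half the replicates above 10; inactive = over half of replicates below 10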;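 note: wells of about 30 µL received 50 nL stock; many hits fall short of the cut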
rRNA inh HTS – inhibits bacterial ribosomal RNA function over humanized ribosomes | actives 1.6% (n = 350,000) | E. coli WT GFP vs humanized-ribosome RFP mutants, fluorescence, 24 h; stronger effect = lower value; DMSO median 0, no signal -100 | GFP signal change (wild-type ribosome), % (test concentration not listed);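 active = significant combined selectivity score with lowered wild-type GFP, culture density cut under 30%, mutant RFP and density less affected; inactive = any of these conditions unmet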; note: one replicate is shown; some compounds called inactive have numbers as strong as hits
RanGTP-Impb inh – inhibitors of RanGTP-importin-beta interaction, primary screen, biochemical, FRET, CFP-Ran, YFP-importin-beta, homogeneous; cell-free CFP-Ran/YFP-importin-beta FRET ratio; inhibition, % (concentration not given with the values); actives 1.1% (n = 300,000);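 active = most replicates above 15%; inconclusive = exactly half above 15%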;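 note: 0% = DMSO wells and 100% = Ran loaded with GDP instead of GTP; wells of about 40 µL received 100 nL stock; the first replicate is given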
Calb FLC – affects C. albicans growth with fluconazole | C. albicans CaCi-2 (fluconazole-resistant clinical isolate) + fluconazole, Alamar Blue growth, 48 h | growth inhibition, % (concentration not given with the values) | actives 0.57% (n = 300,000) | AID 1979;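 active = most replicates above 75%; inconclusive = exactly half above 75%; inactive = most below 75%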;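 note: all wells also contain fluconazole at 8 µg/ml as a sub-toxic cotreatment; 0% = median of DMSO wells and 100% = median of geldanamycin control wells; wells of about 8 µL received 7.5 nL stock; the first replicate is given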
AF4-AF9 inh – MLL-AF4/AF9 protein interaction inhibition; P42568; AlphaScreen, biotin-AF4 peptide binding to FLAG-AF9; inhibition, % at 10 µM; actives 0.47% (n = 350,000); AID 651704;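 active = every replicate reaching a set inhibition limit, whatever the replicate mean, cut at about 25% in these data; inconclusive = mean inhibition reaches that limit but some replicates miss it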;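 note: 0% = plate neutral control median and 100% = total signal loss; the record names both 10 and 1 µM as test concentration; the first replicate is given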
Target sequence (P42568 whole entry, looked up): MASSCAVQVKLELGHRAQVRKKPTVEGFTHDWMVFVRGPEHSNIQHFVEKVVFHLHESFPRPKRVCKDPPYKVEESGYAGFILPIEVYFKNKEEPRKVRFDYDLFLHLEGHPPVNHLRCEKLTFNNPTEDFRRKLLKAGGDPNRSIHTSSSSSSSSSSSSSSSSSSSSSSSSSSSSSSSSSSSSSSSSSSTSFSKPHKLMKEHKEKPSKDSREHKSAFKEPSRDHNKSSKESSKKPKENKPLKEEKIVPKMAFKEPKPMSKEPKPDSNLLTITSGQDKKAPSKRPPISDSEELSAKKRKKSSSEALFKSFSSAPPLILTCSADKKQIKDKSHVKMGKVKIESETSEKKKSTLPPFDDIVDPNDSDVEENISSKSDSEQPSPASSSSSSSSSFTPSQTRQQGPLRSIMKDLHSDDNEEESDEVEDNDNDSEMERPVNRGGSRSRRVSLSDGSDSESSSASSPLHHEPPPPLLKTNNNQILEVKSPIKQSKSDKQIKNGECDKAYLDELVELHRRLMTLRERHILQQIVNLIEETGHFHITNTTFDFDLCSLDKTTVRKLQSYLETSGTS
rRNA inh HTS OD600 – also measured in rRNA inh HTS; calls as there; OD600 change, %; measured here: OD600 growth;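 optical density of the mix in the first replicate; 0 = DMSO median and -100 = no signal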
rRNA inh HTS RFP – also measured in rRNA inh HTS; calls as there; RFP signal change, %; measured here: RFP humanized mutant strains;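 first replicate; 0 = DMSO median and -100 = no signal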
Numbers without * were called inactive; ? = inconclusive; / = not tested or not shown; & = joins results of further samples.

#	SMILES	rRNA inh HTS RFP	T cruzi repl	RanGTP-Impb inh	A1 inh	rRNA inh HTS OD600	Calb FLC	Beta apoptosis	AF4-AF9 inh	Vif A3G	rRNA inh HTS
1	O=C(NC1CCCCCC1)c1cc2ccccc2oc1=O	0.5*	-9	0.5	-6.1	-18*	-2	-2	-2.2	-2%	-24*
2	Cc1cccc(NC(=O)Nc2ccc([N+](=O)[O-])cc2)n1	-6.6	-8	1.0	-0.2	2	10	6	-1.9	8%	4
3	C[C@H](CO)N1C[C@H](C)[C@@H](CN(C)Cc2ccncc2)Oc2c(NS(=O)(=O)c3cn(C)cn3)cccc2C1=O	1.4&-4.4	/	/	-0.6	2&7	/	0	0.9&-4.3	/	0&9
4	CC1Cc2ccccc2N1C(=O)COc1ccc2c(c1)OCO2 (stereo unspecified)	-0.6*	6	-3.1	0.2	-4.8*	-11	2	0.9	/	-22*
5	Cc1ccc(S(=O)(=O)c2cc(N3CCOCC3)nc(-c3ccccc3)n2)cc1	/	32	-2.2	0.1	/	-2	-2	/	22%	/
6	CCCCCCCCN1[C@@H](CC(=O)O)c2ccc(C(F)(F)F)cc2S1(=O)=O	7.0	-7	3.2	?	-1	1	3	-3.8	/	4
7	S=C(NCCN1CCOCC1)N/N=C/c1c2ccccc2cc2ccccc12	/	-23	13	-0.3	/	/	14	/	-5%	/
8	O=C(NCc1ccccc1)C1=C[C@H](c2ccc(Br)cc2)C[C@H](OCc2ccc(CO)cc2)O1	4.4	42	4.4	-0.7	1	11	-3	-2.6	/	1
9	Cc1cc(N(C)C)nc(Nc2ccccc2)n1	-4.5	/	/	0.6	-29	/	17	0.2	?	2
10	Oc1ccccc1-c1nnc(COc2ccc(Cl)cc2Cl)o1	-7.1	0	1.0	-1.7	-25	-1	0	-0.7	8%	-16
11	Cc1ccc(NC(=O)NCc2ccc3c(c2)OCO3)c(C)c1	4.0	-2	-4.7	-0.3	9	-28	-5	-1.3	17%	6
12	CCOCC(=O)Nc1ccc2c(c1)OCCO2	/	15	-4.0	-1.2	/	-4	4	/	11%	/
13	CCCN(CCO)Cc1cccc(Cl)c1	-8.6	-3	0.5	-0.6	12	-15	0	11	7%	8
14	CNS(=O)(=O)c1ccc(CCC(=O)N2CCOCC2)cc1	-1.4	-25	4.2	0.1	23	-5	-6	5.8	13%	26
15	O=c1c2cc(Br)ccc2nc2n1CCCCC2	/	-5	2.1	0.4	/	5	1	/	-2%	/
16	COc1ccc(S(=O)(=O)N(Cc2ccco2)Cc2cc3ccccc3[nH]c2=O)cc1	3.4	19	3.2	-0.3	-14	4	/	-2.8	/	-13
17	CCNC(=O)NC(=O)C(C)SCc1ccccc1C (stereo unspecified)	/	-16	6.3	0.6	/	-13	0	/	-3%	/
18	COc1cccc(N=c2oc3cc(O)ccc3cc2C(=O)NCC2CCCO2)c1 (stereo unspecified)	-14	29	180*	0.7	-3	18	17	-3.5	0%	-6
19	CCOc1ccc(Cn2c3ccc(OC)cc3c3nc4ccccc4nc32)cc1	/	/	/	-0.4	/	/	33	0.9	-5%	/
20	O=C(N1CCOCC1)C12CCC3CC(CC(C3)C1)C2	/	-16	4.8	-0.1	/	-1	0	/	-4%	/
21	COc1cc(NS(=O)(=O)c2ccc(NC(=O)C3CCCO3)cc2)nc(OC)n1 (stereo unspecified)	/	4	/	-0.6	/	-13	7	/	11%	/
22	O=C(/C=C/c1ccc(F)cc1)NC(Cc1c[nH]c2ccccc12)C(=O)O (stereo unspecified)	-1.9	-16	0.1	0.2	12	0	4	-1.5	28%	10
23	c1nnc(NC2=NCCC2)s1	/	-20	1.6	-0.1	/	7	-7	/	3%	/
24	CCc1ccccc1-n1c(-c2ccncc2)n[nH]c1=S	1.9	-8	0.1	-0.2	-6	8	-19	-7.4	19%	4
25	CC(C)[C@H](NC(=O)c1ccccc1Cl)C(=O)OCC(=O)N1CCCCC1	-0.5	/	/	0.3	9	/	-4	3.1	-8%	9
26	O=C(NCCN1CCCCC1)c1ccc(=O)oc1	/	3	3.4	?	/	-7	-4	/	27%	/
27	Cc1ccc(/C=C/C(O)=C2/C(=O)N(C)C3(C)CC2c2ccccc2O3)cc1 (stereo unspecified)	/	34	1.1	1.0	/	12	-4	/	-1%	/
28	O=C(Nc1ccccc1N1CCOCC1)c1cc2c(s1)CCCCC2	-0.8	11	-2.0	-0.1	-25	-22	16	-1.3	-1%	-18
29	O=C(Nc1nccs1)c1cc(-c2ccccc2)nc2ccccc12	-2.0	12	-2.2	0.1	-14	0	0	4.4	/	-8
30	Cc1ccccc1-n1nnnc1SCC(C)C	1.0	1	3.1	0.9	5	-2	-11	-2.1	/	23
31	CCCn1c(=O)c(C(=O)Nc2ccccc2C(=O)OCC)c(O)c2ccccc21	6.6	/	0.1	0.8	6	-25	2	4.5	1%	3
32	Cc1ccc(S(=O)(=O)N2CCCC2CNC(=O)C(=O)NC2CC2)cc1 (stereo unspecified)	0.1	1	-3.3	-0.9	13	8	-3	-19	-2%	11
33	C/C(=N\NC(=O)c1ccccc1)c1ccc2c(c1)OCO2	/	-3	0.0	-1.0	/	-10	-3	/	6%	/
34	Cc1ccc(N(C(=O)CNC(=O)c2cccs2)C(C(=O)NC2CCCC2)c2ccncc2)cc1 (stereo unspecified)	-0.5	-13	-1.7	-0.2	9	4	-6	-11	/	4
35	O=C(Nc1cccc(-c2ccc3nncn3n2)c1)C(F)(F)F	-0.3	-6	7.0	-0.2	8	-1	-3	0.0	-1%	12
36	COc1cc(NC(=O)c2cc(C)nc3ccccc23)cc(OC)c1	4.5	-3	/	-0.3	10	12	0	-1.9	-5%	11
37	COc1cc(N)c(Cl)cc1C(=O)OCC(=O)c1cccs1	-3.4	7	22	0.5	2	-7	-2	-3.9	/	-5
38	CC(C)(/C=N/NC(=O)CSCc1ccccc1Cl)CCC#N	/	6	1.7	0.8	/	-2	1	/	-4%	/
39	Cn1nnnc1SCCOc1ccc(C#N)cc1	/	-23	0.4	1.2	/	3	-2	/	-5%	/
40	COc1cc(OC)cc(-c2c(-c3cccs3)c3cc(-c4ccc(CN5CCOCC5)cc4)ccc3n2C)c1	7.2	/	/	-1.2	-11	/	1	8.0	/	-5
41	O=C(NCCC1=CCCCC1)c1ccc(F)cc1	/	-2	-1.8	-0.2	/	-5	2	/	1%	/
42	COc1ccc(C(=O)CSC#N)cc1OC	-9.7	-17	-2.7	0.3	-27	54	-24	-16	28%	-25
43	COC(=O)C1CCN(C(=O)c2oc3c(Cl)cc(C)cc3c2C)CC1	-9.8	9	1.8	-0.5	-56	8	2	-4.9	/	-36
44	CCc1c(C2(O)CCCCC2)[nH]c2ncccc12	-14	/	/	1.1	-61	/	1	4.5	/	-48
45	CCOc1ccc(S(=O)(=O)N2CCN(c3ccc(OC)cc3)CC2)c2cccnc12	/	23	-1.8	1.3	/	2	-4	/	7%	/
46	CCN1C(=O)[C@@H]2[C@H](C1=O)[C@@H]1C[C@H]3C(=O)N(CC)C(=O)[C@H]3[C@@H]3C1=C(C(=O)N1C(=O)OC(=NCC4CC4)[C@]31C)[C@@H]2C	-3.4	-17	-3.1	0.4	2	-6	-3	-2.7	8%	7
47	Cc1ccccc1NC(=O)CSc1nc(COc2ccccc2)nc2ccccc12	/	0	-0.1	1.0	/	-6	/	/	9%	/
48	COC(=O)C(NC(C)=O)(Nc1nc2ccc(C)cc2s1)C(F)(F)F (stereo unspecified)	/	-11	-0.6	1.5	/	-4	-6	/	0%	/
49	COc1cccc(/C=N/Nc2nc(-c3cccnc3)nc3ccccc23)c1	7.2	6	1.7	-5.1	12	-1	/	4.8	6%	13
50	CCn1c(C)[n+](CCOC(C)=O)c2cc(Cl)c(Cl)cc21	-2.7	-6	2.6	3.2	21	-4	-3	-1.7	14%	29
51	CSc1cccc(NC(=O)COC(=O)C2(c3ccccc3)CC2)c1	3.5	/	/	0.2	-62	/	-6	-0.2	-3%	-24
52	Cc1ccccc1NCC(=O)N/N=C\c1ccc([N+](=O)[O-])s1	/	65*	3.7	-0.2	/	0	3	/	9%	/
53	CCC(C)(C)C1CCC(NC(=O)N2CCN(c3ccccc3O)CC2)CC1 (stereo unspecified)	2.2	20	-2.4	0.4	-1	-2	-6	0.0	/	3
54	Cn1ncc(Cl)c1C(=O)N1CCN(c2cccc(Cl)c2)CC1	-1.2	-17	0.8	-0.5	-18	9	4	1.0	/	-16
55	O=C(NCc1ccco1)Oc1ccccc1	/	-15	-0.1	-0.8	/	-31	-2	/	0%	/
56	CN(C(=O)CS(=O)(=O)Cc1ccccc1Cl)c1ccccc1	-0.9	0	1.7	-0.8	0	0	5	-1.2	9%	4
57	CCn1c(CC(=O)Nc2ccc(F)cc2)nnc1SCC(=O)Nc1nnc(C)s1	-2.5	-2	-1.3	0.4	6	-3	0	1.2	/	3
58	CCOc1ccc2[nH]cc(C(=O)NCc3ccc(F)cc3)c(=O)c2c1	0.4	-39	0.4	-0.1	3	-13	5	-1.1	/	-3
59	Cc1ccc(C(=O)N2CCC(Cc3ccccc3)CC2)cc1[N+](=O)[O-]	-0.8	7	-2.3	1.2	-17	10	-1	3.4	-4%	-18
60	COc1ccc(OC)c(-c2csc(NC(=O)CSc3ccc([N+](=O)[O-])cc3)n2)c1	16	49	?	0.5	-6	-23	-18	0.6	1%	3

Following part:
#	SMILES	rRNA inh HTS RFP	T cruzi repl	RanGTP-Impb inh	A1 inh	rRNA inh HTS OD600	Calb FLC	Beta apoptosis	AF4-AF9 inh	Vif A3G	rRNA inh HTS
61	CCOC(=O)c1nnc(-c2ccccc2)o1	/	-7	-2.3	-1.0	/	2	-3	/	-1%	/
62	CC(C)(C)OC(=O)NCCCC1=CC2=CC(=O)C(C)(O)C(=O)C2=CO1 (stereo unspecified)	/	-7	-11	0.1	/	1	-4	/	/	/
63	CC(=O)c1nc2ccccc2n1Cc1ccccc1	-1.2	8	2.3	0.3	0	-5	-2	0.1	2%	2
64	CN(C)c1ccc(CNn2cnnc2SCC(=O)NC(C)(C)C)cc1	-0.4	-10	-2.6	-1.4	10	-3	1	-1.8	2%	14

Only part of the results is shown; rates above refer to the full screens.
